StopGo reporter = lowers the luciferase signal of an FMDV 2A StopGo reporter; human cells with a luciferase reporter of 2A StopGo recoding; control for the full effect not named in the record; Potency, µM (doses to about 57.9 µM), for the others: top-dose signal change, negative = less light; hit rate 1.2% among 410,000; AID 1159524; active = well fitted falling curve with a large enough effect; inconclusive = small, poorly fitted or top-dose-only effect; inactive = no such curve, though single readings can be large or run the other way; tested in HEK293T cells; note: % is set by controls: 0 for no effect and ±100 for the full control effect; nearly all actives have a fitted effect of over 45% in size; luciferase light after 4 h
NS1 function inh = influenza NS1 inhibition | S. cerevisiae slowed by influenza A NS1, growth recovery by OD600 | Potency, µM (highest dose often 46.1 µM), inactives show at the top dose activity, positive = more growth | hit rate 0.4% among 270,000 | AID 2326; note: actives are rising curves; nearly all actives have a fitted effect of over 50% in size
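In this qHTS, NS1 from influenza A is expressed in budding yeast, where it slows growth. Cells are switched from glucose to 2% galactose medium (pH 6.0, -URA), treated with compound, and growth recovery is read at OD600.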
SARS PLP yeast = blocks SARS-CoV papain-like protease in a yeast assay. hit rate 0.19% among 330,000. Potency, µM (series often up to 32.9 µM), inactives show at the top dose activity, positive = growth rescue. S. cerevisiae expressing SARS-CoV PLpro, growth rescue; control for the full effect not named in the record; note: 0% is about no effect; nearly all actives have a fitted effect of over 55% in size; growth read by luminescence after 48 h
Cruzain Triton = inhibitors of Trypanosoma cruzi cruzain with detergent; P25779; purified cruzain, Z-FR-AMC fluorescence, 0.01% Triton; Potency, µM, for the others: max response, negative = inhibition, hits mostly inhibitors; hit rate 0.43% among 200,000; AID 1478; active = well fitted curve in the direction sought with a large enough effect; inconclusive = small, poorly fitted or top-dose-only effect, or another doubt; inactive = no such curve, though single readings can be large; an effect the other way counts as inactive or inconclusive;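 note: plate controls were neutral wells for no effect and buffer without enzyme for full effect; nearly all actives have a fitted effect of over 40% in size; top concentration of the series not given in the record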
Target sequence (P25779 123-467 limits assumed): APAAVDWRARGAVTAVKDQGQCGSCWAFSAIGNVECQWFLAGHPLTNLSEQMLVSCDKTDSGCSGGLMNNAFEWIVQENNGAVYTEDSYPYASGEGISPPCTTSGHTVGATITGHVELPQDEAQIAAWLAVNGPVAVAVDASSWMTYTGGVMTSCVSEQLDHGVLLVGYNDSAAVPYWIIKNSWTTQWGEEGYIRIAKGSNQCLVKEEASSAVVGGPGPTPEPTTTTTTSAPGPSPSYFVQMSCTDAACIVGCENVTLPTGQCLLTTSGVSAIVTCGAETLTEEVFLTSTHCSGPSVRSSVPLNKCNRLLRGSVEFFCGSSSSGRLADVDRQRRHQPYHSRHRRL
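Purified cruzain (1.5 nM final) was preincubated with compounds for 15 min at room temperature in 100 mM sodium acetate pH 5.5, 5 mM DTT, 0.01% Triton X-100. Reaction started with 2 uM Z-FR-AMC; AMC fluorescence change over 60 s gave activity.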
Cruzain noTriton = inhibitors of Trypanosoma cruzi cruzain without detergent; P25779; purified cruzain, Z-FR-AMC fluorescence, no detergent; Potency, µM, for the others: max response, negative = inhibition, actives largely listed as inhibitors; hit rate 2.3% among 200,000; AID 1476; active = well fitted curve in the direction sought with a large enough effect; inconclusive = small, poorly fitted or top-dose-only effect, or another doubt; inactive = no such curve, though single readings can be large; an effect the other way counts as inactive or inconclusive;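 note: plate controls were enzyme without inhibitor for no effect and buffer without enzyme for full effect; nearly all actives have a fitted effect of over 40% in size; top concentration of the series not given in the record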
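Detergent-free condition (0.00005% Triton X-100) in acetate buffer pH 5.5 with DTT. 1.5 nM enzyme and compound were pre-mixed 15 min, then 2 uM Z-FR-AMC substrate added; reaction progress from fluorescence change between first and third reads (60 s).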
MARV entry inh = blocks Marburg virus binding to or entry into cells | Marburg virus pseudotyped entry inhibition, cell reporter; control for the full effect not named in the record; about a third of the inactives were read at about 46 µM | Potency, µM (titrated, usually from 37.8 µM), for inactives: at the top dose activity change, negative = inhibition, most hits filed as inhibitors | hit rate 1.8% among 300,000 | AID 540276; active = well fitted inhibition curve with a large enough effect; inconclusive = small, poorly fitted or top-dose-only effect, or effect the other way; inactive = flat fitted curve, though single readings scatter; tested in HEK293 cells; about a fifth of its hits are not listed in these tables; note: % is set by controls: 0 for no effect and ±100 for the full control effect; luciferase read-out
RE007 growth inh = less growth of the S. pombe RE007 Vpr strain; S. pombe RE007 Vpr strain, BacTiter-Glo ATP luminescence, 24 h; control for the full effect not named in the record; Potency, µM (titrated, usually from 92.2 µM), for the others: at the highest dose activity change, negative = less growth; hit rate 0.21% among 360,000; AID 651644; active = well fitted falling curve with a large enough effect; inconclusive = small, poorly fitted or top-dose-only effect; inactive = no such curve, though single readings can be large or run the other way;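 note: % is set by controls: 0 for no effect and ±100 for the full control effect; nearly all actives have a fitted effect of over 50% in size; the assay follows cell death caused by Vpr and the record does not say whether a fall means rescue or toxicity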
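Fission yeast RE007 carrying one integrated HIV-1 vpr copy, seeded at OD 0.01 in PMG+AL medium with 23 nL pinned compound. Grown 24 h at 30 degrees; viability read by BacTiter-Glo luminescence after 5 min.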
LASV entry inh = Lassa virus entry inhibition; Lassa virus pseudotype entry inhibition, cell reporter; control for the full effect not named in the record; Potency, µM (highest dose often 37.9 µM), for inactives: at the top dose activity change, negative = inhibition, hits mostly inhibitors; hit rate 1.2% among 300,000; AID 540256; active means well fitted inhibition curve with a large enough effect; inconclusive means small, poorly fitted or top-dose-only effect, or effect the other way; inactive means flat fitted curve, though single readings scatter; tested in HEK293 cells; note: % is set by controls: 0 for no effect and ±100 for the full control effect; nearly all actives have a fitted effect of over 50% in size; luciferase read-out
Starred values were filed as active, the others as inactive; ? = inconclusive; / = no result given; & = joins results of further samples; [ ] = remark or other dose. Unless noted, calls come from the whole dose curve; as a rule, active means well fitted rising curve with a large enough effect; inconclusive means small, poorly fitted or top-dose-only effect; inactive means no such curve, though single readings can be large or run the other way. Potency is the fitted concentration of half-maximal effect.

SMILES	StopGo reporter	NS1 function inh	SARS PLP yeast	Cruzain Triton	Cruzain noTriton	MARV entry inh	RE007 growth inh	LASV entry inh
NC1=NC(=O)C2(COC(c3ccncc3)OC2)S1 (stereo not given)	-10%	/	3%	/	/	?	-3%	5%
CN1CC2([N+](=O)[O-])CC=C(Cl)C([N+](=O)[O-])(C1)C2 (stereo not given)	-4%	7%	-1%	/	/	-19%	-3%	1%
N#CCC(=O)Nn1c(=S)[nH]c2ccccc2c1=O	1%	/	3%	/	/	24%[46.1 µM]	13%	12%
CCOc1cc(/C=C2/C(=N)N3C(=NC2=O)SN=C3S(=O)(=O)CC)ccc1OC(=O)c1ccco1	0%	15%	-2%	/	/	/	-12%	/
Clc1cccc(C2NCc3ccccc3-n3cccc32)c1 (stereo not given)	13%	2%	0%	/	/	/	-3%	/
CCCn1nc(C(=O)OCC(=O)c2ccc3c(c2)NC(=O)CO3)c2ccccc2c1=O	4%	-44%	5%	-3.5%	2%	?	-8%	6%
CC(NC(=O)C1CC1)c1ccc(-c2ccccc2)cc1 (stereo not given)	-15%	14%	1%	/	/	/	8%	/
Cc1cccc(Cn2c(-c3ccc[nH]c3=O)nc3ccccc32)c1	-18%	-1%	1%	/	/	/	1%	/
Cc1ccc2c(Cl)c(C)c(N3CCCC3)nc2n1	3%	-15%	5%	-7.7%	-3%	19%	-20%	5%
Cc1cccc(C(=O)Nc2nccs2)c1[N+](=O)[O-]	6%	2%	7%	-2.6%	-5%	-1%	/	5%
NCC(c1ccc(Cl)cc1Cl)c1c[nH]c2ccccc12 (stereo not given)	-28%	1%	-3%	/	/	?	-11%	-2%
O=C(NCc1ccc2c(c1)CCN2C(=O)c1ccc(F)cc1)c1cc2ccccc2[nH]1	-15%	/	/	1.6%	?	/	/	?
COC(=O)CNc1cccc(C(F)(F)F)c1	-23%	-1%	-1%	/	/	-5%	8%	0%
Cc1nnc(SCC(=O)Nc2nccs2)s1	17%	?	13%	-0.5%	10%	5%	-12%	-1%
CCN=C1SC(C(N)=O)CC(=O)N1CC (stereo not given)	-6%	-5%	-5%	3.2%	3%	-4%	-13%	1%

Random excerpt: three compounds from above
SMILES	StopGo reporter	NS1 function inh	SARS PLP yeast	Cruzain Triton	Cruzain noTriton	MARV entry inh	RE007 growth inh	LASV entry inh
N#CCC(=O)Nn1c(=S)[nH]c2ccccc2c1=O	1%	/	3%	/	/	24%[46.1 µM]	13%	12%
NCC(c1ccc(Cl)cc1Cl)c1c[nH]c2ccccc12 (stereo not given)	-28%	1%	-3%	/	/	?	-11%	-2%
COC(=O)CNc1cccc(C(F)(F)F)c1	-23%	-1%	-1%	/	/	-5%	8%	0%

Next section:
SMILES	StopGo reporter	NS1 function inh	SARS PLP yeast	Cruzain Triton	Cruzain noTriton	MARV entry inh	RE007 growth inh	LASV entry inh
COc1ccc(CCN(C)C2CCCN(S(=O)(=O)c3ccccc3F)C2)cc1OC (stereo not given)	-12%	-1%	-2%	/	/	/	-11%	/
Cc1cc(C)cc(-n2nnnc2SCC(=O)Nc2nc(-c3ccc(F)cc3)cs2)c1	/	-3%	-2%	5.5%	25µM*	?	9%	-5%
COc1ccccc1N1CCN(C(=O)Cc2c(C(=O)O)[nH]c3ccc(Cl)cc23)CC1	-10%	/	0%	/	/	3%	0%	-12%
C[C@H]1CCC(=O)N([C@H](COc2ccccc2)Cc2ccccc2)CC1	15%	-58%	-22%	/	/	/	1%	/
Cc1ccccc1CC(=O)N1CCN(S(=O)(=O)c2ccc(Cl)s2)CC1	0%	/	-2%	/	/	?	-4%	-3%
Cn1nnc2cc(C(=O)NC(C)(C)C)ccc21	-5%	0%	-5%	0.6%	4%	-16%	-4%	5%
C=CCNc1nnc(SCC(=O)N2CCCCC2)c2ccccc12	-7%	9%	0%	-21%	20µM*	-17%	8%	13%[14.3 µM]
O=C(c1cccs1)N(CC1CCCO1)c1nc(-c2ccccc2)cs1 (stereo not given)	0%	-7%	?	-6.6%	?	?	-5%	?
Cc1ccc(NS(=O)(=O)c2cccc(C(=O)NCCCN3CCOCC3)c2)cc1	2%	/	4%	/	/	?	-15%	1%
CC1CCCN(c2ccc(C(=O)N3CCC4(CC3)OCCO4)cc2[N+](=O)[O-])C1 (stereo not given)	42%[activator]	-1%	-4%	/	/	?	-1%	-7%
Cc1cccc2c3c([nH]c12)C(=O)CC(C)(C)S3	-9%	-2%	0%	/	/	-17%[46.1 µM]	7%	2%
O=C(CC1NCCc2ccccc21)Nc1ccc(Cl)cc1 (stereo not given)	12%	/	0%	/	/	?	5%	6%[46.1 µM]
CC1C(=O)NC(=O)C1c1ccccc1 (stereo not given)	-6%	2%	0%	/	/	?	-3%	1%
NC(=O)c1cccc2ccccc12	-18%	3%	0%	/	/	4%[46.1 µM]	5%	11%[46.1 µM]
COc1ccc(-n2c(N)cc(=O)[nH]c2=O)cc1	-5%	5%	-1%	/	/	16%[46.1 µM]	17%	0%

2 of the compounds above, with values under each structure:
Below each SMILES – StopGo reporter, NS1 function inh, SARS PLP yeast, Cruzain Triton, Cruzain noTriton, MARV entry inh, RE007 growth inh, LASV entry inh
COc1ccc(-n2c(N)cc(=O)[nH]c2=O)cc1
  -5%, 5%, -1%, /, /, 16%[46.1 µM], 17%, 0%
Cn1nnc2cc(C(=O)NC(C)(C)C)ccc21
  -5%, 0%, -5%, 0.6%, 4%, -16%, -4%, 5%

Additional structures follow:
SMILES	StopGo reporter	NS1 function inh	SARS PLP yeast	Cruzain Triton	Cruzain noTriton	MARV entry inh	RE007 growth inh	LASV entry inh
COc1cc(OC)c(C(=O)OCC(=O)NC23CC4CC(CC(C4)C2)C3)cc1OC	-10%	/	2%	/	/	2%	-2%	11%
O=C(CSc1nc(=O)n(Cc2ccncc2)c2c1CCC2)Nc1ccc(F)cc1F	-9%	/	/	1.3%	-3%	/	/	23%[46.1 µM]
N#CCCN(C(=O)CN1CCN(S(=O)(=O)c2ccc3c(c2)OCCO3)CC1)c1ccc(F)cc1	-25%	/	2%	/	/	5%	3%	8%
COc1ccccc1C(=O)N1c2ncnn2C2(CCCCC2)[C@@H]2CCCC[C@@H]21	-16%	/	/	-0.9%	8%	-9%[46.1 µM]	/	2%[46.1 µM]
COc1ccc(NS(=O)(=O)c2cc(NC(=O)c3ccc(=O)[nH]c3)ccc2N2CCCC2)cc1	67%[activator]	3%	29%	/	/	/	-3%	/
COc1cccc(C(=O)NC2CCCc3c2cnn3-c2cc(C)cc(C)c2)c1 (stereo not given)	-11%	-67%	-8%	/	/	?	-6%	?
CC(C)(C)c1ccc(C(=O)CSc2ncn[nH]2)cc1	-102%	-12%	-1%	-1.2%	4%	18%	11%	-33%
O=C(Cn1c(=O)n(-c2ccc(Cl)cc2)c(=O)c2c3c(sc21)CCCCC3)Nc1cccc(Cl)c1	?	/	/	-1.9%	-9%	?	/	0%[46.1 µM]
O=c1cccc2n1CC1CC2CN(c2ncnc3c2cnn3-c2ccc(Cl)cc2)C1 (stereo not given)	-21%	-5%	-4%	-1.0%	?	1%&-19%	4%	3%
O=C(c1ccco1)c1cn(CC(=O)N2CCCCC2)c2ccccc12	5%	-11%	2%	-10%	-1%	1%	1%	-14%
O=C(c1ccco1)N1CCN(Cc2cc(=O)c(OCc3ccccc3F)co2)CC1	3%	/	5%	/	/	-4%	12%	-3%
O=C(Nc1ccccc1)C1CC2CCC1C2 (stereo not given)	8%	9%	3%	/	/	9%	2%	11%
Cc1ccc(NC(=O)CS(=O)CC(=O)N(CC(=O)NC2CCCC2)c2cc(C)ccc2C)cc1 (stereo not given)	23%	-10%	3%	2.7%	?	-38%	0%	28%
COc1cccc(-c2nc(C(N)=O)c3[nH]c(=O)n(-c4ccccc4)c3n2)c1OC	-14%	-48%	-2%	-4.6%	-15%	/	-1%	/
O=C(Nc1ccc2nc(SCC(=O)N3CCOCC3)sc2c1)c1cccc(F)c1	-14%	/	/	-8.1%	10%	1%[46.1 µM]	/	-7%[46.1 µM]
O=C1CCN(S(=O)(=O)c2ccccc2)CCN1CCOCc1ccc(F)cc1	-19%	20%	8%	/	/	/	-1%	/
CCC1CN(C(=O)Nc2ccccc2C(F)(F)F)c2ccccc2O1 (stereo not given)	-8%	/	/	-7.7%	14%	/	/	?
O=C(Nc1ccccc1F)C1CCCN1S(=O)(=O)c1cccc2nsnc12 (stereo not given)	-11%	2%	-3%	/	/	/	-1%	/
Cc1ccc(C2NC(=O)c3ccccc3O2)cc1 (stereo not given)	9%	11%	-4%	/	/	/	-5%	/
O=C(c1ccncc1)N1CCN(S(=O)(=O)c2cc(C(F)(F)F)cc(C(F)(F)F)c2)CC1	6%	/	/	/	/	10%	-5%	-4%
O=c1cc(NC2CCCCC2)c2ccccc2o1	-26%	-30%	-10%	3.1%	1%	5%	-23%	3%
CCc1cc(C(=O)Nc2cnn(Cc3ccc(F)cc3)c2)no1	37%[activator]	/	/	-4.2%	-5%	2%[46.1 µM]	/	-22%[46.1 µM]
O=C(Cc1cccs1)NCc1ccccc1	24%	0%	11%	-0.1%	5%	?	2%	-7%
COc1ccccc1CNC(=O)c1cnn(-c2ccc(F)cc2F)c1C1CCN(C(=O)OC(C)(C)C)CC1	-5%	/	/	-8.0%	?	/	/	?
CCOc1ccccc1NC(=O)NCc1ccc(F)cc1	-2%	/	0%	/	/	20%[46.1 µM]	10%	-21%[46.1 µM]
Cc1sc2nc3c(C(=O)N4CCCC4)cc(C(=O)c4ccccc4O)cn3c(=O)c2c1C	-2%	5%	0%	/	/	0%[46.1 µM]	2%	?
Cc1ccc(CN2CCNC(=O)C2CC(=O)N(C)CCc2cnn(C)c2)cc1 (stereo not given)	-8%	0%	2%	/	/	13%	12%	?
COc1ccc(C2C(C(=O)Nc3cccnc3)=C(C)Nc3nc(SCc4ccccc4)nn32)cc1 (stereo not given)	5%	/	/	1.6%	9%	-15%[46.1 µM]	/	8%[46.1 µM]
CC(C)NC(=O)c1cnc(Sc2ncc(C(F)(F)F)cc2Cl)n1C	-15%	3%	3%	3.9%	-1%	?	2%	-15%
